# Screening data from PubChem.
# AmpC nodet inh = inhibitors of E. coli AmpC beta-lactamase without detergent | AID 585 | Potency, µM (titrated, usually from 28.7 µM), for the others: at the top dose activity change, negative = inhibition | P00811 | AmpC nitrocefin hydrolysis, absorbance 480 nm, no detergent; potencies from a single point are estimates | 1.8% of 71,000 active; active = falling curve, for most hits resting on a single point; inconclusive = weak or doubtful change; inactive = flat or rising curve; also: % of control where 0% means no effect; about half of the hits show no inhibition at the top dose; a quarter of the inactives give rising signals
# Target sequence (P00811 whole entry, looked up): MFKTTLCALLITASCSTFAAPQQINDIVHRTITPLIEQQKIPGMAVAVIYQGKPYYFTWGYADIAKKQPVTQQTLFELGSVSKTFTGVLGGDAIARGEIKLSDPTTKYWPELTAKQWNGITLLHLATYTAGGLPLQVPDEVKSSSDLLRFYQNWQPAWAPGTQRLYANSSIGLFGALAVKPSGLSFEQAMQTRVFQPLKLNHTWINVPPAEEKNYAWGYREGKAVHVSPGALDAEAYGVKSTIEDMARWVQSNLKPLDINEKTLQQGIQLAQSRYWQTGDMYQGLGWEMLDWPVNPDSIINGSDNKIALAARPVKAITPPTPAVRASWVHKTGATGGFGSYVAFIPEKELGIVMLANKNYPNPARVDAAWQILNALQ
#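 AmpC in 20 mM phosphate buffer pH 7.0 was preincubated 15 min at room temperature with compounds. Nitrocefin (800 uM stock) was then added and hydrolysis followed at 480 nm every 20 s for 4 min.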
# Numbers without * were called inactive; & = joins results of further samples; [ ] = dose if it differs, or a comment. Potency is read from the fitted curve at half-maximal effect. Some of the compounds tested; rates above refer to the full screens.
SMILES,AmpC nodet inh
C/C(N)=C(\C#N)C(=O)NCCc1ccccn1,4.0%
CC(=O)Nc1cc(NC(C)=O)cc(C(=O)OCC(=O)N2CC(C)OC(C)C2)c1 (centres undefined),-1.1%
CCOC(=O)CNC(=O)CSc1ncnc2c1cnn2-c1ccccc1,15.4%
COc1ccccc1N1CCN(C(=O)c2cc(-c3ccc(Cl)c(Cl)c3)on2)CC1,-5.9%
Oc1[nH]c2ccccc2c1C=Nc1ccc2c(c1)OCCO2,-1.0%
CN(C)S(=O)(=O)N(Cc1ccc(Br)cc1)c1ccccc1,28.4%
C[N+](C)([O-])CCC=C1c2ccccc2CCc2ccccc21,17.7%[5.75 µM]
Cc1noc(C)c1S(=O)(=O)NCCN1CCN(c2ccccc2)CC1,18.9%
CN(C)CC(=O)Nc1ccc(S(N)(=O)=O)cc1,-0.3%
CC(C)(C)c1ccccc1OCC(=O)NCCC(=O)O,-3.1%
COc1ccc(CC(=O)OCn2nnc3ccccc3c2=O)cc1,0.6%
CC(=O)N1CCC2(CCN(Cc3ccncc3)CC2)CC1,9.3%
COc1cccc(C(=O)CN2C3=NCCCN3c3ccccc32)c1,3.9%
Cc1cc(Oc2ccc(=O)n(C)n2)nc(Oc2ccc(=O)[nH]n2)n1,2.0%
CCOC(=O)c1[nH]c(C)c(C(=O)NCc2cccnc2)c1C,-0.6%

# In the list so far, these have four or more nitrogen atoms:
SMILES,AmpC nodet inh
C/C(N)=C(\C#N)C(=O)NCCc1ccccn1,4.0%
CCOC(=O)CNC(=O)CSc1ncnc2c1cnn2-c1ccccc1,15.4%
Cc1noc(C)c1S(=O)(=O)NCCN1CCN(c2ccccc2)CC1,18.9%
Cc1cc(Oc2ccc(=O)n(C)n2)nc(Oc2ccc(=O)[nH]n2)n1,2.0%

# The list goes on:
SMILES,AmpC nodet inh
Cc1ccccc1-c1nc(NCc2cccs2)c2ccccc2n1,-13.8%
C#C[C@]1(O)CC[C@H]2[C@@H]3CCc4cc(O)ccc4[C@H]3CC[C@@]21C,-15.7%
CCCC(=Nc1ccccc1)C1=C(O)C(C(=O)OC)C(C)(C)CC1=O (centres undefined),5.2%
CCOC(=O)c1c(N)sc2c1CCCC2,-1.0%
CN1CCN(CC#CCn2c3ccccc3c3ccccc32)CC1,86.5%
O=C(O)c1cc(S(=O)(=O)N2CCCCCC2)c(Cl)cc1Cl,-10.8%
COc1ccc(C(NC(=O)c2ccco2)c2ccc(OC)c(OC)c2)cc1 (centres undefined),56.6%
CC1=C(C(=O)O)N2C(=O)[C@@H](NC(=O)[C@@H](N)C3=CCC=CC3)[C@@H]2SC1,-16.8%
CCOC(=O)CC(Nc1nc(N2CCOCC2)nc(N2CCOCC2)n1)c1ccccc1Cl (centres undefined),113.9%
C=CCNC(=O)c1c(Cl)cccc1Cl,0.6%
N#CCCn1c(=O)c(-c2ccc(Cl)cc2)nc2cnc(N3CCNCC3)nc21,97.6%
CC(CCc1ccco1)NC(=O)Nc1cccc(F)c1 (centres undefined),-13.2%
c1ccc2[nH]c(CN3CCN(c4ncnc5c4oc4ccccc45)CC3)nc2c1,121.7%
C[C@@H](CS(=O)(=O)Cc1ccccc1)C(N)=O,5.9%[5.75 µM]
N#CC(C#N)=NNc1ccc2cn[nH]c2c1,-0.6%[5.75 µM]

# The closing 2 entries of the part before are carried over, then new ones follow:
SMILES,AmpC nodet inh
C[C@@H](CS(=O)(=O)Cc1ccccc1)C(N)=O,5.9%[5.75 µM]
N#CC(C#N)=NNc1ccc2cn[nH]c2c1,-0.6%[5.75 µM]
COC(=O)CNC(=O)c1ccc2c(c1)S(=O)(=O)c1ccccc1C2=O,8.4%
CCOC(=O)c1c2n(c3ccc(O)cc13)CCC2,9.0%
Cc1cccc(NC(=O)CSc2nnc(-c3cc(C)n(-c4ccccc4)c3C)o2)c1C,1.2%
O=C(OCC1OC2C(Oc3nc(=O)ccn32)C1O)c1ccccc1 (centres undefined),3.0%
COc1ccc(OC)c(S(=O)(=O)N2CCc3ccccc32)c1,21.5%
Cc1cc(S(=O)(=O)N2CCC(NC(=O)C34CC5CC(CC(C5)C3)C4)CC2)ccc1-n1cnnn1,5.5%
CC(=O)Nc1ccc(NC(=O)CN(c2ccccc2Cl)S(C)(=O)=O)cc1,-2.6%
CCCCC(=O)Nc1ccc(C(=O)NCC(=O)OC)cc1,-2.3%
Cc1nc(N2CCN(c3ccccc3)CC2)nc2c1C(=O)CC(C)C2 (centres undefined),65.5%
C=CCOC(=O)C1=C(C)Nc2ncnn2C1c1cc(Br)ccc1F (centres undefined),6.4%
COc1ccc(Oc2ncc3nc(-c4cccs4)c(=O)n(C)c3n2)cc1,14.8%
CC1=C(C(=O)Nc2cccnc2)C(c2ccc(C(C)C)cc2)n2ncnc2N1 (centres undefined),46.7%
N#CC1=C(N)C(C#N)(C#N)[C@H](c2c(F)cccc2F)[C@H]2CC3(CC=C12)OCCO3,4.0%
CC1=C(C(=O)OCC2CCCO2)C(c2ccc(O)cc2)NC(=O)N1 (centres undefined),-4.4%
CCN(CC)CCOc1c(Br)ccc2c1sc1nc3n(c(=O)c12)CCC3,24.3%
CCOC(=O)c1c(C)[nH]c(C(=O)COC(=O)CCC(=O)c2ccc3c(c2)OCCO3)c1C,-0.2%
Nc1ccc(OCc2ccccc2)cc1,9.7%
COC(=O)CN1C(=O)C(O)(CC(=O)c2ccccc2)c2ccccc21 (centres undefined),4.8%
CCOC(=O)Cc1csc(NC(=O)CSc2ncnc3c2cnn3-c2ccccc2Cl)n1,7.8%
CCCCn1c(-c2ccccc2)nnc1-c1ccccc1,8.0%
Cc1nc2ccc(S(=O)(=O)N(C)CC(=O)NCc3ccc4c(c3)OCO4)cc2s1,39.9%
CC(=O)OC1c2ccccc2C(=O)N1c1ccccc1C (centres undefined),3.98µM*[single pt active]
CCOC(=O)c1ccccc1NC1c2ccccc2C(=O)N1c1ccc(C)cn1 (centres undefined),3.98µM*[single pt active]
COc1ccc(-c2csc3ncnc(NCCN4CCOCC4)c23)cc1,92.9%
CCN(CC)c1nc2n(c(=S)n1)CCS2,-7.4%
O=C(O)[C@H]1CN(CCCP(=O)(O)O)CCN1,19.9%&1.6%&-3.7%
c1ccc(C2=NP(N3CCOCC3)(N3CCOCC3)=NC(N3CCOCC3)=N2)cc1,23.2%
CC(C)NC(=O)N1CC2(CCN(C(=O)c3ccncc3)CC2)C1,-7.9%
O=c1[nH]c(=O)n([C@H]2C[C@H](O)[C@H](CO)O2)cc1Br,-7.8%
CCOC(=O)CN1C(=O)COc2ccc(C(C)(C)C)cc21,22.4%

# Part of the list above, field by field.
COC(=O)CN1C(=O)C(O)(CC(=O)c2ccccc2)c2ccccc21 (centres undefined)
  AmpC nodet inh: 4.8%
CC(C)NC(=O)N1CC2(CCN(C(=O)c3ccncc3)CC2)C1
  AmpC nodet inh: -7.9%

# (next part)
SMILES,AmpC nodet inh
Cc1cc(C)c2c(n1)nn1c(C3CC3)cc(C(F)(F)F)nc21,12.0%
CCOC(=O)COn1c2c(c3c4no[n+]([O-])c4ccc31)CCCC2,1.1%
O=C(NC1CC2CCCC(C1)N2C1CC1)NC12CC3CC(CC(C3)C1)C2 (centres undefined),4.0%
Fc1ccc2nc3[nH]c4ccccc4c3nc2c1,-13.3%
O=S1(=O)C=C(Sc2nc3cc(Cl)ccc3o2)c2ccccc21,-23.8%
COc1ccc(N2C(=O)CCC(C(=O)N3CCOCC3)C2c2ccc(F)cc2)cc1 (centres undefined),32.0%
COc1ccccc1-c1nc(C#N)c(N2CCc3ccccc3C2)o1,71.4%
CCOC(=O)C1CCN(CCC(=O)Nc2cccc(Cl)c2)CC1,-9.9%
O=C(NCCCN1CCOCC1)c1ccc(Br)s1,-20.0%
Cn1c(SCC(=O)NC2CCCCC2)nnc1-c1cc2cc(Cl)ccc2o1,1.5%
COc1cccc(-c2nn(C)c3sc(C(=O)NCc4ccc5c(c4)OCO5)cc23)c1,12.7%
O=C(CN(CCc1ccccc1)C(=O)CNS(=O)(=O)c1ccc(F)cc1)NCC1CCCO1 (centres undefined),43.5%
Cc1cc(NC(=O)CN2C(=O)C3CC=CCC3C2=O)no1 (centres undefined),-10.0%
Cc1ccc(S(=O)(=O)c2nc(S(C)(=O)=O)sc2NCC2CCCO2)cc1 (centres undefined),35.5%
CC(C)COC(=O)C(N)C(C(=O)OCC(C)C)c1ccccc1 (centres undefined),70.7%
O=C(NCc1cccc(Cl)c1)c1ccco1,-7.2%
Cc1ccc(C(=O)NCCNC(=O)CN2CCOCC2)cc1,-0.9%
COC(=O)C1=C(C)NC2=C(C(=O)CC(c3cccs3)C2)C1c1ccsc1 (centres undefined),-5.8%
O=C1NC2C(NC(=O)N2C2CCCCC2)N1C1CCCCC1 (centres undefined),-11.1%
CCOc1ccc(C2=Nn3c(nnc3-c3ccccc3)SC2)cc1Cl,-9.4%
CC(C)CCNc1nc2c(c(=O)n(Cc3cccc(F)c3)c(=O)n2C)n1C,62.4%
O=C(NCc1cccc2ccccc12)[C@H]1C[C@@H]1[C@H](NP(=O)(c1ccccc1)c1ccccc1)c1ccccc1,20.2%
CCN1C(=S)SC(=O)C1=C1C=C(C)OC(C)=C1,7.2%
COCCOC(=O)c1c(C)oc2ccc(OC(=O)c3c(OC)cccc3OC)cc12,73.8%
Cc1nn(C(=O)CCCC(=O)n2nc(C)c(Cl)c2C)c(C)c1Cl,-0.1%
CCN1CCN(C(=O)c2cc3c(s2)-c2ccccc2S(=O)(=O)C3)CC1,3.98µM*[single pt active]
CC(=O)OC1CCC(OC(C)=O)c2c1n([O-])c(C)c(C)[n+]2=O (centres undefined),3.0%
Cc1cccn2c(=O)c3c(nc12)N1CCC(Cc2ccccc2)CC1C1(C3)C(=O)N(C)C(=O)N(C)C1=O (centres undefined),106.3%
CCOC(=O)N1CCC(NC(=O)C2CCN(C(=O)N3CC(C)Oc4ccc(C)cc43)CC2)CC1 (centres undefined),104.0%
Cc1cccc(-n2c(Cc3cc(=O)[nH]c(=O)[nH]3)nnc2SCC(=O)N2CCCCC2)c1,16.8%
COc1ccc(NC(=O)CN(c2ccc(C)cc2)S(=O)(=O)c2c(C)nn(C)c2C)cc1OC,57.0%
COc1ccc(S(=O)(=O)N(CCCN2CCCC2=O)Cc2cc3c(C)cc(C)cc3[nH]c2=O)cc1,177.5%
O=C(Cc1ccsc1-c1ccccc1)NO,-5.5%
CC(C)Sc1nc2c(c(=O)n1-c1ccc(F)cc1)SCC2,1.8%
CN(C)c1ccc(-c2nc(NCCN3CCOCC3)c3ccccc3n2)cc1,65.7%
CCCN(CCC)CCc1c[nH]c2ccc(C(N)=O)cc12,-14.7%
CCCc1[nH]nc2c1C1(CCOC1C)C(C#N)=C(N)O2 (centres undefined),-11.7%
O=C(Cl)c1ccccc1[N+](=O)[O-],-1.7%
CC(C)(C)n1nnnc1C(c1cccc(C#N)c1)N1CCN2CCCC2C1 (centres undefined),-0.6%
Cn1c(SCC(=O)Nc2ccccc2-c2ccccc2)nnc1-c1ccco1,30.1%
COc1ccc(CNC(=O)CCS(=O)(=O)c2cccc3nonc23)cc1,-0.2%
Brc1ccc(C2Nc3cccc4cccc(c34)N2)o1,-0.6%
O=C1c2oc3ccc(Cl)cc3c(=O)c2C(c2ccccn2)N1CCCN1CCOCC1 (centres undefined),26.2%
CC(=O)c1c(C)nc(C)nc1NC(=O)Cc1ccccc1,-2.6%
O=C(COc1ccccc1Cl)N1CCN(c2ncccn2)CC1,14.5%

# Six structures already listed, arranged by molecular weight, low to high.
SMILES,AmpC nodet inh
CC(=O)c1c(C)nc(C)nc1NC(=O)Cc1ccccc1,-2.6%
CCCN(CCC)CCc1c[nH]c2ccc(C(N)=O)cc12,-14.7%
O=C(COc1ccccc1Cl)N1CCN(c2ncccn2)CC1,14.5%
COc1ccc(CNC(=O)CCS(=O)(=O)c2cccc3nonc23)cc1,-0.2%
CN(C)c1ccc(-c2nc(NCCN3CCOCC3)c3ccccc3n2)cc1,65.7%
COc1ccc(NC(=O)CN(c2ccc(C)cc2)S(=O)(=O)c2c(C)nn(C)c2C)cc1OC,57.0%

# Additional entries:
SMILES,AmpC nodet inh
O=C(Nc1ccc(Cl)cc1F)c1ccc(COc2c(F)c(F)c(F)c(F)c2F)o1,-12.0%
COCCn1c(=O)c(-c2ccc(F)cc2)nc2cnc(Oc3ccc(OC)cc3)nc21,18.9%
O=C(N1CCOCC1)N1CCN(C(=O)N(c2ccccc2)c2ccccc2)CC1,39.5%
Cc1ccc(S(=O)(=O)Nc2ccc(S(=O)(=O)Nc3ncccn3)cc2)cc1,-15.4%
Cc1oc(CC(C)C)cc1C(=O)Nc1ccc(C(=O)O)cc1,-12.8%
COc1ccc(C(=O)N2CCCC2)cc1S(=O)(=O)N1CCC(C)CC1,31.2%
CSc1nc2sc3c(c2c(=O)n1C)CCCC3,5.3%
CCn1c(SCc2ccc(C#N)cc2)nnc1-c1ccc(S(=O)(=O)N2CCCCC2)cc1,68.5%
CCNC(=O)C1CN(S(=O)(=O)c2ccccc2)CCN1S(=O)(=O)c1ccccc1 (centres undefined),-0.2%
COC(=O)Cn1cc(C(=O)c2ccco2)c2ccccc21,-4.1%
CC(C)Cn1c(N2CCN(C(=O)c3cccs3)CC2)nc2ccccc21,57.0%
COc1cc(CCC(=O)N2CCN(S(=O)(=O)c3ccc(C)c(C)c3)CC2)cc(OC)c1OC,130.4%
CC(C)CN1CC[C@@]2(CCCN(C(=O)Oc3ccccc3)C2)C1,79.4%
Cc1ccc(C(=O)Nc2nc3ccc(S(C)(=O)=O)cc3s2)s1,-2.0%
C/C=C(\C)c1nnc(NC(=O)c2ccco2)s1,-7.1%
Cc1nc(NC2=NCN(Cc3ccccc3)CN2)nc2ccccc12,14.2%
CC1N(P(=O)(c2ccccc2)c2ccccc2)CC(O)(c2ccccc2)CC12CC2 (centres undefined),87.5%
CCOc1ccc(NC(=O)c2oc3ccccc3c2NC(=O)C(C)C)cc1,35.9%
